FGF22 binding: binders of human FGF22 protein, primary screen, FGF22 synaptogenesis inhibitor project, biophysical, thermal shift, single point; Fibroblast growth factor 22 (Homo sapiens), Q9HCT0; recombinant FGF22 thermal shift, SYPRO orange fluorescence; percent of sucrose octasulfate shift, DMSO zero; calls only at 9.99 µM; 340,000 compounds, 1.5% hits; AID 651658, 2012;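 active = melting point raised past a set limit in the mean and every replicate; three in four hits are not shown here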
Target sequence (Q9HCT0 whole entry, looked up): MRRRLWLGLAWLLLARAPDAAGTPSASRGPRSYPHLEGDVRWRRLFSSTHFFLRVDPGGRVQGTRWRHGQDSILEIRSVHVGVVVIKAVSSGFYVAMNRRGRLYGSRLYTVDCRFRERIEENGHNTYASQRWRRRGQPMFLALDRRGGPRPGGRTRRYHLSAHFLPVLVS
UCH37 DUB inh: inhibitors of human UCH37 deubiquitinase, primary screen, biochemical, Ub-AMC cleavage, fluorescence. Ubiquitin carboxyl-terminal hydrolase isozyme L5 (Homo sapiens), Q9Y5K5. purified proteasome/UCH37. inhibition, % (concentration not given with the values). 330,000 compounds, 0.33% hits. AID 588478, 2011;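 active = mean of two replicates above 20%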;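 note: 0% = compound-free wells with enzyme and 100% = wells lacking proteasome; stock transfer was 100 nL into about 20 µL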
Target sequence (Q9Y5K5 whole entry, looked up): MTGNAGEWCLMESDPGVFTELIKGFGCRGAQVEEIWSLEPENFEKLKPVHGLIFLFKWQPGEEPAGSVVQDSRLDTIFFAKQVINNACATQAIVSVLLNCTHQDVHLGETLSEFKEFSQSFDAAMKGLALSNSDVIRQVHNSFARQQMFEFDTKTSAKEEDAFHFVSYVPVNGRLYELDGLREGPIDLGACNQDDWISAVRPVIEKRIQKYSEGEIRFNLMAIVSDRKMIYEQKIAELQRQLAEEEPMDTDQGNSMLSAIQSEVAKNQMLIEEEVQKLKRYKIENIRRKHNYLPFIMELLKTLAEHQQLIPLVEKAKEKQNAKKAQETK
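Signal – fluorescence, ex 355 nm, em 460 nm · System – Proteasome-bound UCH37 · Input – 0.15 nM proteasome as dispensed · Timing – 30 min preincubation with enzyme, 25 min cleavage at room temperature · Read-out basis – percent inhibition of cleavage signal versus uninhibited and no-proteasome wells · Medium – Tris-HCl pH 7.4 with ATP-MgCl2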
T cruzi repl: inhibitors of intracellular T. cruzi growth, primary screen, luminescence, NIH3T3 host cells; T. cruzi beta-gal in NIH3T3, 90 h; inhibition, % (no concentration beside the values); 300,000 compounds, 1.4% hits; AID 1885, 2009;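 active = mean inhibition across valid replicates above about 55%, limit read from the data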;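 note: signal also drops with host cell toxicity which is not excluded here; 0% = plate median of DMSO wells and 100% = zero luminescence signal; higher percent means less beta-gal luminescence so fewer parasites; stock transfer was 50 nL into about 50 µL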
Bfl-1 A1 inh: caspase 3/7 activation in MEF A1-2A-BIM cells, primary screen, A1 inhibitor project, cell-based, luminescence, HTS | Caspase-Glo 3/7 luminescence, 3 h; percent of clofoctol response, vehicle zero | caspase activation, % (no concentration beside the values) | 330,000 compounds, 0.066% hits | AID 2462, 2010;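 active = over half of replicate activation scores above 10%, or exactly half above 10 with the replicate mean above 10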;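 note: wells of about 30 µL received 50 nL stock; many hits fall short of the cut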
The depositor's hits bear a star; i = inactive; nt = no result given.

| smiles | FGF22 binding | UCH37 DUB inh | T cruzi repl | Bfl-1 A1 inh |
| --- | --- | --- | --- | --- |
| CC(=O)OC[C@H]1O[C@H](CC=NOC[C@@H](O)[C@H]2O[C@@H]3OC(C)(C)O[C@@H]3[C@H]2O)C=C[C@@H]1OC(C)=O | nt | 0.7 | nt | nt |
| Cc1cc2c(nc1C)CCCN2C[C@@H](C)ON=C1[C@H]2CCn3c(=O)n(-c4ccccc4)c(=O)n3[C@H]2[C@H](O)[C@@H]2O[C@H]12 | nt | -117.1 | nt | nt |
| CC(Cn1nc([N+](=O)[O-])cc1C)=NNC(=O)COc1ccc(Cl)cc1Cl | nt | 2.9 | nt | nt |
| CC(O)[C@H]1CC[C@H]2[C@@H]3CC[C@H]4C[C@@H](O)CC[C@]4(C)[C@H]3C(=NO)C[C@]12C (some centres undefined) | nt | 0.3 | nt | nt |
| C=CC[C@H](CC(=O)N[C@H](CO)Cc1ccccc1)C(=O)N[C@H](COC(=O)[C@@H](CC=C)Cc1ccc(F)cc1)Cc1c[nH]c2ccccc12 | nt | 1.0 | nt | nt |
| O=C(CNC(=O)c1ccccc1O)NN=Cc1cc(Br)ccc1OC(=O)/C=C/c1ccco1 | nt | 2.0 | nt | nt |
| S=c1[nH]nc(COc2ccccc2)n1N=Cc1cccnc1 | nt | 0.4 | nt | nt |
| COc1ccc(O[C@H]2C=C[C@@H](c3ccccc3)O[C@@H]2COC(=O)CCC(C)=NOC[C@@H](O)COCc2ccco2)cc1 | nt | 2.3 | nt | nt |
| COC(=O)[C@@H]1CC[C@H](C)[C@@H](c2ccc(C)cc2)N1C(=O)c1ccc(C=NO[C@@H](C)CN2CCCCc3nc(C)c(C)cc32)cc1 | nt | 1.8 | nt | nt |
| CC(=O)OC[C@H]1O[C@@H](ON=C[C@@H](C)[C@H](OCc2ccccc2)C(C)C)[C@H](OC(C)=O)[C@@H](OC(C)=O)[C@@H]1OC(C)=O | nt | 1.0 | nt | nt |
| CC[C@]12C(=O)N(C)C[C@H]([C@@H]3C(=O)N(C)C(=O)[C@@H]31)N2C(=O)c1ccccc1 | nt | -0.2 | nt | nt |
| Cc1ccc(NC(=O)CC2S/C(=N/N=Cc3ccco3)NC2=O)cc1Cl (centres undefined) | nt | 5.1 | nt | nt |
| C=C1C(=O)O[C@@H]2[C@H]1[C@@H](OC(=O)/C(C)=C/C)CC(C)=CC(=O)C=C(C)[C@@H]2O | nt | -1.3 | nt | nt |
| COc1ccc(OC)c(C=Nc2c(-c3ccc(O)c(OC)c3)nc3ccccn23)c1 | nt | -5.5 | nt | nt |
| O=C(NN=C/C=C/c1ccccc1)c1n[nH]c2c1CCC2 | nt | 1.6 | nt | nt |
| Cc1cccc(NN=C(C=NN)C(=O)c2ccc(Br)cc2)c1 | nt | 3.7 | nt | nt |
| Cc1cccc(C(=O)Oc2ccc(C=NNC(=O)Cc3ccc([N+](=O)[O-])cc3)cc2)c1 | nt | 1.2 | nt | nt |
| CC(=NNC(=O)COc1ccc(C)cc1C(C)C)c1ccc(-n2ccnc2)cc1 | nt | 2.3 | nt | nt |
| Cc1ccc2nc(Cl)c(C=NNC(=O)[C@H]3C[C@@H]3c3ccccc3)cc2c1 | nt | -1.9 | nt | nt |
| COc1ccc(O[C@H]2C=C[C@@H](c3ccccc3)O[C@@H]2CON=C(C)CCC(=O)OC[C@H]2O[C@H](c3ccccc3)C=C[C@@H]2Oc2ccc(OC)cc2)cc1 | nt | -0.1 | nt | nt |
| CC(Oc1ccc(Cl)cc1)C(=O)NN=Cc1ccsc1 (centres undefined) | nt | 0.3 | nt | nt |
| Cc1cc(=O)[nH]c(NN=C/C=C/c2ccccc2)n1 | nt | 7.7 | nt | nt |
| CC(=O)OC[C@H]1O[C@@H](ON=CC[C@@H]2C=C[C@H](OC(C)=O)[C@@H](COC(C)=O)O2)[C@H](OC(C)=O)[C@@H](OC(C)=O)[C@@H]1OC(C)=O | nt | 11.8 | nt | nt |
| COC(=O)[C@@H]1CCC(C)[C@@H](c2ccc(C)cc2)N1C(=O)c1ccc(C=NOC(C)c2cn(C(CO)Cc3ccccc3)nn2)cc1 (some centres undefined) | nt | 3.2 | nt | nt |
| CC(=O)OC[C@H]1O[C@@H](ON=C(C)CCN2CCCCc3nc(C)c(C)cc32)[C@H](OC(C)=O)[C@@H](OC(C)=O)[C@@H]1OC(C)=O | nt | -0.7 | nt | nt |
| COc1ccccc1NC(=O)CC1S/C(=N/N=C2CCCc3ccccc32)NC1=O (centres undefined) | nt | 4.0 | nt | nt |
| CCCCC(=O)NN=Cc1sccc1C | nt | 1.0 | nt | nt |
| O=C(NN=Cc1sc2ccccc2c1O)c1cccc2ccccc12 | nt | 4.6 | nt | nt |
| C#CCOCCOCCOCCNc1nc(N2CCN(C(=O)[C@H](CCC(=O)O)n3cc(C(N)CO)nn3)CC2)nc(N2CCN(C(=O)[C@H](CCC(=O)O)n3cc(C(N)CO)nn3)CC2)n1 (some centres undefined) | nt | 3.6 | nt | nt |
| CN(C)C=Nc1cc(=O)[nH]c(=O)n1CC1CC1 | nt | 0.1 | nt | nt |
| O=C1[C@H]2[C@H]3[C@H](O)[C@H](O)CC(=NOC[C@@H](O)COCc4ccco4)[C@@H]3CC[C@H]2C(=O)N1c1ccc(F)cc1F | nt | 0.0 | nt | nt |
| O=C(NN=Cc1cccc([N+](=O)[O-])c1)c1cccs1 | nt | 3.1 | nt | nt |
| CN1/C(=C\C=NNC(=O)c2ccc(O)cc2)C(C)(C)c2ccccc21 | nt | -0.1 | nt | nt |
| O=C(NN=Cc1c[nH]c2ccccc12)c1ccncc1 | nt | 5.3 | nt | nt |
| C(/C=C/c1ccccc1)=NNc1nc(N2CCOCC2)nc(N2CCOCC2)n1 | nt | 2.2 | nt | nt |
| O=[N+]([O-])c1cccc(C=NNc2nnc(-c3ccccc3)c(-c3ccccc3)n2)c1 | nt | 3.3 | nt | nt |
| Clc1ccccc1CN1CCN(N=C/C=C\c2ccco2)CC1 | nt | 2.2 | nt | nt |
| CC(C)Oc1ccc(C(=O)NN=Cc2ccc(-c3ccc(S(=O)(=O)Nc4ncccn4)cc3)o2)cc1 | nt | -47.0 | nt | nt |
| O=C(NN=C/C=C/c1ccccc1)c1cc2c(ccc3ccccc32)o1 | nt | -13.6 | nt | nt |
| NC(=NOC(=O)Cc1cccs1)c1ccc([N+](=O)[O-])cc1 | nt | -3.0 | nt | nt |
| O=c1[nH]c(C(=NO)c2ccccc2)no1 | nt | 6.8 | nt | nt |
| C/C=C/C(=O)N1CC2(CC(c3cccc(NC(=O)CCCCC)c3)=NO2)C[C@H]1C(N)=O (some centres undefined) | nt | 0.0 | -6.0 | nt |
| C#CCOCCOCCOCCNc1nc(N2CCN(C(=O)C([C@@H](C)CC)n3cc(C(N)CO)nn3)CC2)nc(N2CCN(C(=O)[C@H](CCC(=O)O)n3cc(C(N)Cc4ccc(O)cc4)nn3)CC2)n1 (some centres undefined) | nt | 1.8 | -22.5 | nt |
| N#Cc1ccc(C23CC4(C2)[C@H](CN(CC2CCCCC2)[C@@H]4c2ccccc2)C3c2ccc(C(F)(F)F)cc2)cc1 (some centres undefined) | nt | 1.0 | 39.2 | nt |
| Cc1ccc(SC[C@H](CC(C)C)N2CCN(CCc3ccccc3)CCC2=O)cc1 | nt | 4.6 | 17.2 | nt |
| CCCCN1/C(=C/c2ccc3ccccc3[n+]2CC)Sc2ccccc21 | nt | 3.9 | 62.7* | nt |
| COc1cc2c(c(O)c1OC)-c1c(cc(OC)c(OC)c1O)[C@@H](OC(=O)c1ccccc1)[C@@](C)(O)[C@@H](C)[C@@H]2OC(C)=O | nt | 1.2 | -14.1 | nt |
| C#CCOCCOCCOCCNc1nc(N2CCN(C(=O)Cn3cc(CCCCN)nn3)CC2)nc(N2CCN(C(=O)[C@H](C)n3cc(CCCN=C(N)N)nn3)CC2)n1 | nt | 0.3 | -13.5 | nt |
| C#CCOCCOCCOCCNc1nc(N2CCN(C(=O)[C@H]([C@@H](C)CC)n3cc([C@@H](N)CO)nn3)CC2)nc(N2CCN(C(=O)[C@H]([C@@H](C)CC)n3cc([C@@H](N)CO)nn3)CC2)n1 | nt | 1.3 | -9.5 | nt |
| COc1ccc([C@@H]2C[C@@H](c3ccccc3)Oc3cc(OC)c(OC)c(OC)c32)cc1 | nt | 1.6 | 8.9 | nt |

In the list so far, five contain a nitro group on carbon:
| smiles | FGF22 binding | UCH37 DUB inh | T cruzi repl | Bfl-1 A1 inh |
| --- | --- | --- | --- | --- |
| CC(Cn1nc([N+](=O)[O-])cc1C)=NNC(=O)COc1ccc(Cl)cc1Cl | nt | 2.9 | nt | nt |
| Cc1cccc(C(=O)Oc2ccc(C=NNC(=O)Cc3ccc([N+](=O)[O-])cc3)cc2)c1 | nt | 1.2 | nt | nt |
| O=C(NN=Cc1cccc([N+](=O)[O-])c1)c1cccs1 | nt | 3.1 | nt | nt |
| O=[N+]([O-])c1cccc(C=NNc2nnc(-c3ccccc3)c(-c3ccccc3)n2)c1 | nt | 3.3 | nt | nt |
| NC(=NOC(=O)Cc1cccs1)c1ccc([N+](=O)[O-])cc1 | nt | -3.0 | nt | nt |

The results go on.
Every second line gives: FGF22 binding, UCH37 DUB inh, T cruzi repl, Bfl-1 A1 inh
> O=C(c1ccc2c3n(nc2c1)-c1ccccc1CO3)N1CCOCC1
  nt, -8.8, -11.4, -13.0
> COc1ccc2c(c1)O[C@H](c1ccc3c(c1)OCO3)[C@@H](OC(=O)Nc1cc(OC)c(OC)c(OC)c1)C2=O
  nt, 2.8, 19.6, -0.4
> C#C[C@]1(O)CC[C@H]2[C@@H]3[C@H](C)CC4=C(CCC(=O)C4)[C@H]3CC[C@@]21C
  nt, 0.6, 5.4, 0.7
> O=C(C1=C[C@@H](c2csc3ccccc23)C[C@@H](OCc2ccc(CO)cc2)O1)N1CCN(Cc2ccccc2)CC1
  nt, 2.4, 68.4*, -0.7
> COc1ccc([C@H](C)NC[C@H](O)c2ccc(O)c(NC=O)c2)cc1
  nt, 1.1, 0.2, 0.3
> COC(=O)c1c(C)nc(C)c2c(=O)oc3ccccc3c12
  nt, 0.3, -19.5, 0.4
> CCN1CCC[C@H]1CNC(=O)c1cc(S(N)(=O)=O)ccc1OC
  nt, 3.1, -13.1, -0.5
> C[C@H](NC(CCc1ccccc1)C(=O)O)C(=O)N1CCC[C@H]1C(=O)O (some centres undefined)
  nt, 1.6, -17.2, 0.7
> COc1ccc(CNC(=O)c2c(N)[nH]c(C(=O)c3ccccc3)c2-c2ccc3ccccc3c2)cc1OC
  i, nt, nt, nt
> O=C(Nc1c(-c2ccccc2)[nH][nH]c1=O)c1ccc2ccccc2c1
  i, nt, nt, nt
> COc1ccc(-c2c(C(=O)c3ccccc3)[nH]c(N)c2C(=O)NCCc2c[nH]c3ccccc23)cc1
  i, nt, nt, nt
> CCC(C(=O)Nc1c(C)cccc1C)n1c(-c2cc(C)cs2)nc2ccccc21 (centres undefined)
  i, nt, nt, nt
> CCOC(=O)[C@]12CCCC=C1N(CCC1=CCCCC1)C(=O)[C@H](CC(=O)N1CCSCC1)C2
  i, nt, nt, nt
> COC(=O)C[C@H]1C=C[C@@H](NC(=O)Cc2cccnc2)[C@@H](CO)O1
  i, nt, nt, nt
> Nc1c(-c2ccccc2)nc2ncccn12
  i, nt, nt, nt
> Nc1nc2ccc(Cl)cc2cc1C(=O)NCCc1ccc(O)cc1
  i, nt, nt, nt
> COC(=O)C1(C(=O)OC)C[C@H](c2ccc(OC)cc2)N(Cc2ccccc2OC)[C@@H]1c1ccc(OC)cc1
  i, nt, nt, nt
> COC(=O)[C@@]12C[C@@H](CC(=O)NCc3cccc4ccccc34)C(=O)N(Cc3cccc4ccccc34)C1=CCC(C)(C)C2
  i, nt, nt, nt
> CCCCCCCCN1C(=O)[C@H](CC(=O)NCCc2ccccc2OC)C[C@@]2(C(=O)OC)CC(C)(C)CC=C12
  i, nt, nt, nt
> CCNC(=O)C[C@@H]1CC[C@@H]2[C@@H](COc3ccc(NC(=O)c4ccccc4Cl)cc3C(=O)N2C)O1
  i, nt, nt, nt
> Cc1cccc(C)c1NC(=O)C1(C)CN(S(C)(=O)=O)CC(=O)N1Cc1ccco1 (centres undefined)
  i, nt, nt, nt

Screens from PubChem BioAssay.

A portion of the library; the hit share may differ from the screen's.
